Bioassay records from PubChem.
PABP polyA inh: PABP-poly(A) binding inhibition. 1% of 290,000 active. inhibition, % at 35 µM. PABP-poly(A) RNA binding, fluorescence polarization;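 active = 50% or more with normal probe brightness, or confirmed in later tests; inconclusive = above 50% with abnormal brightness, or retests that disagree; inactive = below 50% or failed in later tests; about a fifth of its hits are not listed in these tables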;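 also: calls also rest on retests at 20 µM and on dose response follow-up; controls were probe without protein and protein plus probe with vehicle; some compounds called inactive have numbers as strong as hits; many hits fall short of the cut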
Target sequence (P11940 whole entry, looked up): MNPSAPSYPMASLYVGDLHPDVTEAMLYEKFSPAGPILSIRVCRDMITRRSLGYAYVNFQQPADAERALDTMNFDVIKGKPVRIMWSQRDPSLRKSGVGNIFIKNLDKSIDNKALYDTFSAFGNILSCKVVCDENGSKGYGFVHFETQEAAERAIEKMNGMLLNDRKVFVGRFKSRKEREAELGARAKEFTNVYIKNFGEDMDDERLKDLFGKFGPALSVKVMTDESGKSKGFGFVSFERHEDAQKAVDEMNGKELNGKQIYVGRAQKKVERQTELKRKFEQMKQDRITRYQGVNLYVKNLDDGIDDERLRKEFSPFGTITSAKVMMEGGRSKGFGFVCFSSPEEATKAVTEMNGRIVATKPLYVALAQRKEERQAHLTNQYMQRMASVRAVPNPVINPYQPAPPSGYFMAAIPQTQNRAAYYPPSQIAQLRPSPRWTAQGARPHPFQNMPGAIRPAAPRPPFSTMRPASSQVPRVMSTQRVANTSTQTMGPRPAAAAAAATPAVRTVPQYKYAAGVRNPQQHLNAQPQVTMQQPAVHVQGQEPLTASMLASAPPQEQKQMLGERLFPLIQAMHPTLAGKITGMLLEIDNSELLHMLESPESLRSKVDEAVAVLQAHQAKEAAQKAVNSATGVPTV
eIF4H FP inh: inhibitors of RNA binding by human eIF4H. eIF4H fluorescence polarization binding assay. inhibition, % at 35 µM. 0.94% of 290,000 active;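 active = 50% or more with normal probe brightness, or confirmed in later tests; inconclusive = above 50% with abnormal brightness, or retests that disagree; inactive = below 50% or failed in later tests; about a fifth of its hits are not listed in these tables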;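 also: calls also rest on retests at 20 µM and on dose response follow-up; 0% = protein and probe with vehicle and 100% = probe without protein; strong numbers were not always called active; many hits fall short of the cut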
MT1-MMP act inh: MT1-MMP (human) activation inhibition; P50281; HT1080 RFP-PRO-GFP cells, GFP/RFP ratio fluorescence, overnight; percent of plate control window, DMSO zero; GFP/RFP ratio change, % at 20 µM; 0.061% of 360,000 active; AID 651647;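 active = GFP/RFP ratio change of at least 30% with cell ATP level not reduced by more than half and red fluorescence within 50% of control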; also: strong numbers were not always called active
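Assay system – RFP-PRO-GFP reporter HT1080 cells · Compound dosing – single dose of 20 µM compound, 1% DMSO final · Incubation – overnight compound exposure at 37 °C · Measure – GFP/RFP fluorescence ratio · Benchmarks – DMSO wells and RFP-L50D-GFP cells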
HIV Env fusion: inhibitors of HIV Env-mediated cell fusion; HeLa-JRFL Env/CEM21 cell fusion, luciferase; 1.1% of 360,000 active; inhibition, % at 12.3 µM;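 active = mean replicate inhibition score of at least 50 and every replicate individually at or above 50; inconclusive = only one of the two criteria met; inactive = mean below 50 and not all replicates reaching 50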;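 also: 0% = plate neutral controls and 100% = maraviroc near 300 nM; one replicate is shown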
Yeast UUG start: modulators of start codon recognition fidelity in yeast. AID 602363. 0.13% of 350,000 active. activity score, % at 18.7 µM. S. cerevisiae UUG-firefly luciferase reporter, luminescence/redox ratio;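 active = replicate mean at a twofold rise or more, about +100% in these data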;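 also: firefly luciferase made from a UUG start codon reports start codon fidelity; reporter light over untreated wells divided by growth signal over untreated wells; some hits fall short of that in this replicate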
Rce1 inhib: inhibitors of yeast Ras-converting enzyme; Q03530; yeast membranes, quenched prenylated peptide cleavage fluorescence; calls only; 0.27% of 290,000 active; AID 2563;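 active = fall in fluorescence gain of 50% or more versus controls, with final raw signal at or below 3038400; inconclusive = same 50% fall but final raw signal above 3038400; inactive = fall in fluorescence gain under 50%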;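 also: plate controls were neutral control wells for no effect and wells lacking membranes for full effect; tested at 10 µM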
CSC inhib: cancer stem cell inhibition; 1.1% of 300,000 active; AID 2717; inhibition, % at 7.5 µM; cancer stem cell-like cells viability, luminescence;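 active = mean at 75% or more and at least half the replicates too; inconclusive = mean and replicates disagree; tested in HMLE shEcad cells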;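 also: 0% = median of negative and 100% = median of positive control wells; the first replicate is given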
MT1-MMP act inh RFP: further read-out of MT1-MMP act inh, marked with its call; RFP signal change, %; measured here: RFP expression control read;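 0 = vehicle wells; hits needed this value within 50% of zero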
Numbers without * were called inactive; i = inactive; ? = inconclusive; . = not tested or not shown; & = joins results of further samples; [ ] = another dose, or the depositor's remark. Random draw from the library; about 2.9% have a hit in one of these screens.

SMILES	PABP polyA inh	eIF4H FP inh	MT1-MMP act inh	MT1-MMP act inh RFP	HIV Env fusion	Yeast UUG start	Rce1 inhib	CSC inhib
Clc1ccc(N=C2SCC3CCCCN23)cc1 (stereo unspecified)	-2	-8	0	0	-20	-31	i	12
COc1ccccc1NC(=O)C(C)OC(=O)CCNS(=O)(=O)c1ccc(C)c(C)c1 (stereo unspecified)	.	.	-3	0	-24	0	i	-2
COC(=O)c1ccc(C23CC4(C2)[C@H](CN(Cc2cccnc2)[C@@H]4c2ccccc2)C3c2ccccc2)cc1 (stereo partly specified)	-14	-2	-10	-15	-20	-17	i	11
Cc1cc(N2CCC(C(=O)NC3CCCCC3)CC2)nc(-c2ccccc2)n1	-6	10	6	-5	.	-17	i	-19
O=C(NC1CC1)C1=C[C@H](c2coc3ccccc3c2=O)C[C@H](OCCCCO)O1	.	.	-3	1	35[16.7 µM]	-5&-4	i	-8
O=C(CNCC1CCCCC1)Nc1ccc(OC(F)(F)F)cc1	4	4	-9	-3	-23	-10	i	0
CC(C)CCn1c(CN(C)Cc2ccccc2)nc2c1c(=O)n(C)c(=O)n2C	-1	-6	-7	4	-58	-5	i	-6
N#Cc1cccc(C#N)c1N1CCC(C#N)CC1	4	2	1	3	-1	.	i	-8
CC(C)[C@H](NC(=O)[C@@H]1Cc2ccccc2CN1C(=O)OC(C)(C)C)C(=O)NCC1CCC(C(=O)O)CC1 (stereo partly specified)	6	4	3	4	-4	7	i	-4
CCn1c(N2CCN(CC(=O)c3ccc(OC)cc3)CC2)nc2ccccc21	-3	2	-2	-1	.	-4	.	.
NS(=O)(=O)c1ccc(CCNC(=O)C2CCCN2C(=O)OCc2ccccc2)cc1 (stereo unspecified)	-6	-1	11	2	.	-16&1	i	-12
CCCCCCC(=O)Nc1ccc(C(=O)N/N=C/c2cccnc2)cc1	-9	-7	6	0	3	.	i	53
COc1cc(NC(=O)CSc2nc(C)c(C)c(C)n2)cc(OC)c1	8	2	-1	-4	13	-16	i	.
CCc1cc(=O)n2[nH]c(C)c(-c3ccc(OC)cc3)c2n1	-3	0	-3	0	10	-4	i	13
O=c1ccc(-c2ccc(S(=O)(=O)N3CCN(c4ccccc4)CC3)o2)n[nH]1	-4	-1	0	1	6	-16	i	-19
Cc1ccc(S(=O)(=O)Oc2cccc(/C=N/Nc3ccc(C(=O)O)cc3)c2)cc1	5	2	1	-1	-159	-7	i	9
CC1=NN(c2ccccc2C(=O)O)C(=O)C1N=Nc1ccccc1 (stereo unspecified)	27	6	5	-1	6	-17	i	-13
Cn1ncc(N2CCN(S(=O)(=O)c3ccc(Br)cc3)CC2)c(Cl)c1=O	-4	9	2	-1	-2	-11	i	14
O=C(NNC(=O)c1cc2ccccc2[nH]1)OCc1ccccc1	.	.	1	-3	16	-8	.	.
Cc1ccccc1SCC(=O)Nc1cccc(C#N)c1	-7	-1	6	6	-56	-17	i	-21

In a second layout: entries from further up.
CCn1c(N2CCN(CC(=O)c3ccc(OC)cc3)CC2)nc2ccccc21
- PABP polyA inh: -3
- eIF4H FP inh: 2
- MT1-MMP act inh: -2
- MT1-MMP act inh RFP: -1
- HIV Env fusion: .
- Yeast UUG start: -4
- Rce1 inhib: .
- CSC inhib: .
NS(=O)(=O)c1ccc(CCNC(=O)C2CCCN2C(=O)OCc2ccccc2)cc1 (stereo unspecified)
- PABP polyA inh: -6
- eIF4H FP inh: -1
- MT1-MMP act inh: 11
- MT1-MMP act inh RFP: 2
- HIV Env fusion: .
- Yeast UUG start: -16&1
- Rce1 inhib: i
- CSC inhib: -12
CCCCCCC(=O)Nc1ccc(C(=O)N/N=C/c2cccnc2)cc1
- PABP polyA inh: -9
- eIF4H FP inh: -7
- MT1-MMP act inh: 6
- MT1-MMP act inh RFP: 0
- HIV Env fusion: 3
- Yeast UUG start: .
- Rce1 inhib: i
- CSC inhib: 53
COc1cc(NC(=O)CSc2nc(C)c(C)c(C)n2)cc(OC)c1
- PABP polyA inh: 8
- eIF4H FP inh: 2
- MT1-MMP act inh: -1
- MT1-MMP act inh RFP: -4
- HIV Env fusion: 13
- Yeast UUG start: -16
- Rce1 inhib: i
- CSC inhib: .

Ordered by formula weight (falling): some entries from above
SMILES	PABP polyA inh	eIF4H FP inh	MT1-MMP act inh	MT1-MMP act inh RFP	HIV Env fusion	Yeast UUG start	Rce1 inhib	CSC inhib
COC(=O)c1ccc(C23CC4(C2)[C@H](CN(Cc2cccnc2)[C@@H]4c2ccccc2)C3c2ccccc2)cc1 (stereo partly specified)	-14	-2	-10	-15	-20	-17	i	11
Cn1ncc(N2CCN(S(=O)(=O)c3ccc(Br)cc3)CC2)c(Cl)c1=O	-4	9	2	-1	-2	-11	i	14
O=C(NC1CC1)C1=C[C@H](c2coc3ccccc3c2=O)C[C@H](OCCCCO)O1	.	.	-3	1	35[16.7 µM]	-5&-4	i	-8
CC1=NN(c2ccccc2C(=O)O)C(=O)C1N=Nc1ccccc1 (stereo unspecified)	27	6	5	-1	6	-17	i	-13
Clc1ccc(N=C2SCC3CCCCN23)cc1 (stereo unspecified)	-2	-8	0	0	-20	-31	i	12

The list goes on:
SMILES	PABP polyA inh	eIF4H FP inh	MT1-MMP act inh	MT1-MMP act inh RFP	HIV Env fusion	Yeast UUG start	Rce1 inhib	CSC inhib
Cc1cccc(C)c1NC(=O)N1C2CCCC1CC(NC(=O)C(C)(C)C)C2 (stereo unspecified)	-3	-4	2	1	-30	15	i	.
COc1ccc(-c2csc(NC(=O)C3CCN(C(=O)c4ccc(F)cc4)CC3)n2)cc1OC	1	-13	1	-27	42	23	i	5
Cc1ccc(NC(=O)c2cnn(-c3ccccc3)c2C)cc1C	2	-6	3	-10	-55	-69	i	7
Cc1ccc(C)c(S(=O)(=O)NNC(=O)Nc2ccccc2Cl)c1	1	2	-5	1	-11	-4	i	0
COc1ccc(/C=C(\NC(=O)c2ccc([N+](=O)[O-])cc2)C(=O)NCCCN2CCOCC2)cc1	-4	-16	-1	1	4	0	.	-6
Cc1ccc(N(C(=O)c2cc3ccccc3oc2=O)C2C=CS(=O)(=O)C2)cc1 (stereo unspecified)	-8	-18	-2	5	.	.	i	0
COc1ccc(C)cc1NC(=S)NNC(=O)c1c(Br)cnn1C	4	-1	0	-3	-6	.	i	-19
COc1ccc(Nc2nc(N3CCCCC3)nc3ccccc23)c(OC)c1	2	0	5	-2	-26	1	i	15
COc1ccc(CN2C(=NC(=O)COc3ccccc3)SC3CS(=O)(=O)CC32)cc1 (stereo unspecified)	10	-3	5	4	20	-5	i	-14
Cc1cccc(N2CC(C(=O)Nc3nnc(SCc4ccccn4)s3)CC2=O)c1 (stereo unspecified)	18	40	-5	1	-57	0	i	-5
CCOC(=O)/C(N=Nc1cc(C(=O)O)cc(C(=O)O)c1)=C(\O)CCl	10	-4	-3	-1	3	.	i	-10
CCN(CC)C(=O)c1[nH]cnc1C(=O)Nc1cccc(C)c1	.	.	2	-1	-8	-5	.	23
COc1ccc(C)cc1-n1nnnc1SCn1nnc2ccccc2c1=O	-1	2	-2	-14	?	-29	i	-10
COC(=O)Cc1nnc(SCC(=O)Nc2ccccc2)c2ccccc12	2	-12	-6	1	-1	-13	i	-17
Cc1cccc(C(=O)Nc2nsc(N)n2)c1	.	.	-3	-4	12	-10	i	-8
COC(=O)c1sccc1NC(=O)c1ccnn1C	-6	-14	-3	3	-44	-9	i	0
COc1ccc2c(c1)C(=NNc1ccc(C(=O)O)cc1)c1cc(OC)ccc1-2	4	27	8	-6	-42	-17	i	45
CN(CCCC(=O)NC1CC(C)(C)NC(C)(C)C1)S(=O)(=O)c1ccc([N+](=O)[O-])cc1	-1	-3	4	10	-6	.	i	0
COC(=O)c1cc(-c2cccs2)[nH]n1	2	0	0	2	-6	.	i	-7
CCCCn1c(=O)nc2n(-c3ccc(OC)cc3)c3ccccc3cc-2c1=O	12	28	3	-4	-8	-7	i	.
N#CCCn1cc(C(=O)N2CCOCC2)c(-c2ccc3c(c2)OCCO3)n1	-11	-5	-4	1	9	2	i	-9
CCCCOC(=O)C1=C(C)NC(=O)NC1c1cccc([N+](=O)[O-])c1 (stereo unspecified)	3	38	4	-11	-39	-6	i	-14
COc1ccc(NC(=O)OCCn2c([N+](=O)[O-])cnc2C)cc1	5	9	0	6	12	.	i	-15
CC(=O)Nc1sc2c(c1C(c1cccc(F)c1)N1CCN(CCO)CC1)CCCC2 (stereo unspecified)	-1	3	1	3	-11	-1	i	-24
COc1ccc2cc(CN(CCc3ccccc3)Cc3nnnn3CC3CCCO3)c(=O)[nH]c2c1 (stereo unspecified)	-1	-16	-21	2	18	-25	i	-5
COc1ccc(NS(=O)(=O)c2ccc(S(=O)(=O)N(C)C)cc2)cc1S(N)(=O)=O	5	6	0	4	-11	.	i	-16
CC(C)(C)NCCOCCOc1ccc(Cl)cc1C(C)(C)C	-5	7	-2	-3	20	.	i	37
Cc1cc(C)nc(NS(=O)(=O)c2ccc(NC(=O)c3cccc(N4C(=O)CCC4=O)c3)cc2)n1	3	2	-16	-3	-11	1	i	-2
COc1ccc(-c2nc3c4ccccc4ccn3c2CN2CCCCC2)cc1	-2	-2	-6	-3	21	.	i	-2
CC(C)(C)c1csc(NC(=O)Cc2ccc(S(=O)(=O)N3CCOCC3)s2)n1	.	.	-13	-13	-2	.	i	6
Cc1nc2c(C)cccc2cc1C(=O)N/N=C/c1cccc([N+](=O)[O-])c1	5	5	-1	-4	.	-14	i	32
COc1ccc(/C=C(/NC(=O)c2ccc(Br)o2)C(=O)Nc2cccc(C(=O)O)c2)cc1	.	.	0	3	-14	-16	.	.
N#CCC(=N)N1CCN(c2ccccc2)CC1	6	-5	2	4	.	.	i	-5
CCOC(=O)Oc1ccc2c(=O)c(Oc3cc(C)cc(C)c3)coc2c1	-4	-6	4	0	?	8	i	1
O=C1C=C(c2ccc(Cl)c(C(F)(F)F)c2)C[C@@H](c2ccc(F)cc2)C1	.	.	4	1	11	-15	.	55
O=c1c(-c2ccc(F)cc2)coc2c3c(ccc12)OCCO3	6	-2	-23	-8	-130	-20	i	7
CC(=O)Nc1nnc(SCC(=O)c2ccc3c(c2)Cc2ccccc2-3)s1	12	-8	7	7	11	-22	i	15
CC1CCN(c2ccc(/C=N\Nc3nncn3N)cc2[N+](=O)[O-])CC1	8	-10	7	-6	-62	.	.	15
CCOC(=O)c1ccc(NC(=O)CN2CCN(Cc3ccccc3)CC2)cc1	-16	-3	0	-2	1	.	i	10
COc1ccc(-c2cn3cc(C(F)(F)F)cc(Cl)c3n2)cc1	-3	-2	5	0	-319	.	i	127*
